# Assay outcomes: PubChem, Broad Institute
# HepG2: HepG2 cell cytotoxicity, dose response, cytotoxicity control, ATP luminescence, cherry-pick, activator set 2 (AID 1053143). activity change, negative = cytotoxicity, % at the top dose, mostly 26 µM; hits show AC50 in µM. HepG2 viability, CellTiter-Glo ATP luminescence, 72 h. 3,400 tested, 3.7% active;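 active = fitted AC50 at most twice the highest valid dose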;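 note: 0 = neutral control and -100 = positive control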
# Active calls of the source: *; [ ] = remark or other dose.
SMILES	HepG2
c1ccc(-c2cn(CC3CCCCC3)nn2)cc1	-16%
O=C(O)c1ccc(NCc2cccnc2)cc1	-16%
c1ccc2oc(SCc3cn4ccsc4n3)nc2c1	-18%
CCc1ccc(C(=O)COC(=O)c2cccc(N3C(=O)c4c(C)nc5ccccc5c4C3=O)c2)cc1	-23%
Cc1ccc(C(=O)c2coc3ccc(O)c(Cl)c23)cc1	-16%
CC(=O)C(/C=N/c1cc(-c2ccc(C)cc2)nn1-c1ccccc1)=C(\C)O	26µM*
COc1ccc(-c2cn(Cc3ccc(C(=O)c4ccccc4)cc3)nn2)cc1	-18%
COc1cc(Cl)ccc1OCc1cc(C(=O)N2C[C@@H]3CCC[C@H]2C3)no1	5%[12 µM]
Clc1ccccc1NN=Cc1ccccn1	-10%
COc1cc2c(cc1NC(=O)c1cccc(S(=O)(=O)N(C)C)c1)oc1ccccc12	-27%

# Gathered by group: the entries above with sulfur (2)
SMILES	HepG2
c1ccc2oc(SCc3cn4ccsc4n3)nc2c1	-18%
COc1cc2c(cc1NC(=O)c1cccc(S(=O)(=O)N(C)C)c1)oc1ccccc12	-27%

# New compounds follow.
SMILES	HepG2
CCC(C)NC(=O)c1cc(-c2ccc3c(c2)OCO3)on1 (stereo not given)	-12%
O=C(Nc1ccc(N2CCCC2)c(Cl)c1)c1ccco1	-6%
COc1nc(C)ccc1-c1noc(-c2ccco2)n1	-2%
COn1c(-c2ccc(Cl)cc2)nc2ccc(Cl)cc21	-13%
CN(C)c1ccc(C=Cc2ccnc3ccccc23)cc1N	26µM*
S=C(Nc1ccccc1)c1nc2ccccc2s1	-15%
CC(C)c1ccc(/C=C2\SC(N3CCCC3)=NC2=O)cc1	-6%
Cc1ccc(N2CCN(C(=O)c3cn(CC4CCCCC4)nn3)C(C)C2)cc1 (stereo not given)	36%
CC(C)c1ccc(CN(C)C(=O)c2ccc(S(=O)(=O)NCc3ccco3)cc2)cc1	-17%
CCCc1cc(C(=O)Nc2ccc(Cl)cn2)cs1	-2%
COc1ccc(NC(=O)CSc2ccccn2)c([N+](=O)[O-])c1	-11%
COC(=O)c1ccc(NC(=O)Cc2ccccc2)cc1	-15%
COc1cccc(OCc2cc(C(=O)N3CCN(c4ccccc4OC)CC3)no2)c1	-2%
S=c1[nH]nc(-c2ccncc2)n1/N=C/c1cn(-c2ccccc2)nc1-c1ccc(Cl)cc1	-6%
CC1(C)CC(=O)C2=C(C1)c1c(ccc3ccccc13)NC2c1ccco1 (stereo not given)	1%
Cc1ccc(NC(=O)c2nnn(-c3cc(C)cc(C)c3)c2N)cc1	-11%
Cc1ccnc(NC(=O)c2ccc(OCC3CCCO3)cc2)c1 (stereo not given)	26µM*
CC(=O)c1cccc2c(O)c(C3=Nc4ccccc4C3=O)[nH]c12	22µM*
Cc1ccc(Nc2nc(C)cs2)cc1	-15%
Cc1ccc(NC(=O)c2cc(-c3cccs3)on2)cc1	-10%
CCCc1cc2c(=O)c(-c3ccccn3)coc2cc1OC	-4%
O=C(CSc1nncs1)NC(=O)Nc1ccc2c(c1)OCCO2	-4%
CCOC(=O)c1cnc2c(-c3ccccc3)cnn2c1N	-8%
COc1cc2ccc(-c3ccc4ccccc4n3)cc2cc1OC	-3%
CCc1ccc(NCc2nc3ccccc3c(=O)[nH]2)cc1	-3%
Cc1c(/C=C/C(=O)c2cccs2)cnn1C	-19%
CN1CCN(C(=O)c2ccc(-c3cccs3)s2)CC1	-6%
Cc1cccc(N2CC(C(=O)NC3CCCCCC3)CC2=O)c1C (stereo not given)	-7%
O=C(OCCOc1ccccc1)c1n[nH]c2ccccc12	10%
O=C(NCCOc1ccccc1F)c1ccc2c(=O)n3c(nc2c1)CCC3	-5%
CC(=O)c1ccc(NC(=O)c2cc3ccccc3o2)cc1	-14%
O=C(Nc1ccc(F)c(Cl)c1)c1cc(-c2ccco2)on1	15%
CC(=O)Nc1nc2cc3c(cc2s1)OCCO3	5%
COc1ccc(NC(=O)c2cc(-c3ccco3)on2)cc1	3%
O=C1CSC(=S)N1/N=C/c1cccnc1	-5%
COc1ccccc1NC(=O)c1ccc2[nH]c(C)c(C)c2c1	1%
CC(=O)NCC1(O)CCCC(C)C1 (stereo not given)	-32%
Clc1cc(Cl)c2nc(N3CCCC3)sc2c1	-6%
CCOc1cccc(/C=C/c2ccc3cccc(O)c3n2)c1OC	26µM*
Cc1c(CC(=O)N[C@H](C(=O)O)C(C)C)c(=O)oc2cc3c(cc12)CCC(C)(C)O3	-4%

# 9 entries already listed, ordered by SMILES length, low to high.
SMILES	HepG2
O=C1CSC(=S)N1/N=C/c1cccnc1	-5%
Clc1cc(Cl)c2nc(N3CCCC3)sc2c1	-6%
c1ccc(-c2cn(CC3CCCCC3)nn2)cc1	-16%
O=C(OCCOc1ccccc1)c1n[nH]c2ccccc12	10%
COn1c(-c2ccc(Cl)cc2)nc2ccc(Cl)cc21	-13%
CCc1ccc(NCc2nc3ccccc3c(=O)[nH]2)cc1	-3%
Cc1cccc(N2CC(C(=O)NC3CCCCCC3)CC2=O)c1C (stereo not given)	-7%
COc1cc2c(cc1NC(=O)c1cccc(S(=O)(=O)N(C)C)c1)oc1ccccc12	-27%
S=c1[nH]nc(-c2ccncc2)n1/N=C/c1cn(-c2ccccc2)nc1-c1ccc(Cl)cc1	-6%

# Next part
SMILES	HepG2
COc1ccc(NS(=O)(=O)c2cn(C)c(=O)n(C)c2=O)cc1	-8%
Cc1cc2sc(NC(=O)c3ccco3)nc2cc1Cl	-3%
Clc1ccc(CSc2nc3ccncc3[nH]2)cc1	-23%
CCOC(=O)c1c(Nc2ccc(OC)cc2)n[nH]c1C	-11%
O=S(=O)(c1ccccc1)n1ccc(-c2cnc(-c3ccccc3)s2)n1	-17%
Cc1ccc(NC(=O)Nc2ccc3c(c2)OCO3)c(OC(F)F)c1	-1%[12 µM]
COc1ccc2cc(C(=O)N(C)CC(=O)Nc3ccccc3Br)ccc2c1	4%
CCC1CCc2sc(C(=O)NCC3CCCO3)cc2C1 (stereo not given)	0%
Cc1cnc(NC(=O)CCNC(=O)c2ccccc2Cl)s1	-17%
Cc1ccc(NC(CC(=O)c2ccccc2)C(=O)O)cc1Cl (stereo not given)	-4%
CCC(=O)NC1=C(Nc2ccc(N)cc2)C(=O)c2ccccc2C1=O	-24%
CC(=O)c1ccc(/C=C/c2nc3ccccc3n2C)o1	-21%
Nc1nc(-c2nc3ccccc3[nH]2)cs1	-16%
O=C(/C=C\Nc1ccc(Br)cc1)c1cccnc1	-5%
CCOc1ccccc1CNC(=O)c1cn(C)c(=O)c2c1c1ccccc1n2C	23%
COc1ccc(NC(=O)C2=Cc3cccc(OC)c3OC2)cc1	-10%
CN(C)S(=O)(=O)c1ccc(C(=O)NCCOc2ccccc2)cc1	-4%
CC(=O)Nc1cccc(NC(=O)c2cc3ccccc3o2)c1	-29%
CC(C)NC(=O)N(C)C[C@H]1Oc2ccc(NC(=O)Nc3ccccc3)cc2C(=O)N([C@H](C)CO)C[C@@H]1C	-19%[12 µM]
Fc1ccc2cnc(C3=CCCCC3)cc2c1	32%
COC(=O)c1ccc(SCc2ccccc2)nc1	-12%
Clc1ccc(-c2ccc(SCc3ccccn3)nn2)cc1	11%
Cc1cccc(/C(N)=N/OC(=O)c2cccnc2)c1	-10%
COc1ccccc1C(=O)O/N=C(\N)c1ccccn1	-13%
CCOC(=O)CSc1nc2cc(C)ccc2cc1C#N	-7%
COc1cc(/C=C/C(=O)OCC(=O)NCCc2ccccc2)cc(OC)c1OC	-6%
CN(C)c1ccnc2sc(C(=O)c3ccccc3)c(N)c12	-11%
Oc1cccc(Oc2ncc(C(F)(F)F)cc2Cl)c1	-4%
O=c1oc2c(O)cccc2cc1-c1nc2ccccc2[nH]1	-22%
C=CCn1c(C)nc2c(sc3nc4c(cc32)COC(C)(C)C4)c1=O	-25%
Cc1ccn2c(CC(C)(C)C)c(-c3ccc(F)cc3)nc2c1	-13%
O=C(COc1ccc2c(c1)CCC2)N1CCc2ccccc21	-7%
Cc1cccc(OCC(=O)Nc2nccs2)c1C	-3%
C(=NN=Cc1c[nH]c2ccccc12)c1c[nH]c2ccccc12	-22%
O=C(CCNC(=O)c1ccc(Br)cc1)Nc1ccc(S(=O)(=O)N2CCOCC2)cc1	-8%
N/C(=N\O)c1ccc(NC(=O)c2cccs2)cc1	-2%
O=C(/C=C/c1ccccc1Cl)Nc1cccc(O)c1	6%
COc1ccccc1NNC(=O)c1cc(C(C)(C)C)nn1Cc1ccccc1	-16%
COc1ccc(C/C(C)=N\NC(=O)c2c[nH]c3ccccc23)cc1OC	-2%
COc1ccc2nc(Nc3ccccc3OC)sc2c1	-34%

# Next section:
SMILES | HepG2
O=C(Nc1cccc(-c2ccc(N3CCOCC3)nn2)c1)c1cccc(Cl)c1 | -6%
Cc1ccc2[nH]c(=O)c(CN(CCc3ccccc3)C(c3nnnn3Cc3ccco3)C(C)C)cc2c1 (stereo not given) | -11%
S=C(c1ccc(-c2ccc(Br)cc2)o1)N1CCCCC1 | -2%
Oc1ccccc1-c1cc(-c2ccccc2)n[nH]1 | 26µM*
O=C(N/N=C/c1ccc(Cl)cc1Cl)c1cccc(F)c1 | -6%
c1ccc(-c2nnc(SCCC3OCCCO3)o2)cc1 | -20%
CC(CC(=O)Nc1ccc2c(c1)OCCO2)c1ccccc1 (stereo not given) | -19%
O=C(NCCc1cccs1)C1CC(c2ccc([N+](=O)[O-])cc2)=NO1 (stereo not given) | -6%
CC(OC(=O)c1ccc(-n2cnnn2)cc1)C(=O)Nc1ccccc1F (stereo not given) | 6%
CCOc1cccc(C2C(C(=O)c3ccco3)=C(O)C(=O)N2c2nnc(C)s2)c1 (stereo not given) | -17%
COc1ccc2oc(-c3ccco3)cc(=O)c2c1 | -16%
COc1ccc(NC(=O)c2ccccc2NC(=O)C2CCCCC2C(=O)O)cc1 (stereo not given) | -15%
O=C1CC(c2ccco2)Sc2nc3ccccc3n21 (stereo not given) | 5%
COC(=O)c1ccc(/C=N/Nc2nc(C)c(C)s2)cc1 | -11%
CC(C)(C)N1C(=O)c2ccc(C(=O)Nc3ccc(O)cc3)cc2C1=O | -21%
COc1ccc(Nc2ccnc(Nc3ccc(OC)cc3)n2)cc1 | 26µM*
O=C(NCCc1cccs1)c1ccc(Cl)c(Cl)c1 | 2%
O=C(/C=C/c1ccccc1)NC(=O)c1ccccc1O | -13%
CC(=O)Nc1cccc(NC(=O)c2ccc(C)c([N+](=O)[O-])c2)c1 | -5%
C/C(=N\NC(=O)c1cc(C)[nH]n1)c1cccs1 | -13%
Cc1ccc(C(=O)NN=CC(=O)c2ccccc2)c(C)c1 | 8%[12 µM]
CC1CCc2c(C(=O)Nc3ccccn3)csc2C1 (stereo not given) | 2%
Cc1cc(OCC(=O)N(C)C2CCCCC2)ccc1Cl | 8%
O=C(CCN1C(=O)C2CCCCC2C1=O)Nc1nc2c(F)cc(F)cc2s1 (stereo not given) | 45%
O=C(NN1C(=O)C2C3c4ccccc4C(c4ccccc43)[C@@H]2C1=O)c1ccccc1 (stereo not given in full) | 28%
C/C(Cc1ccccc1)=N\NC(=O)CNC(=O)c1cccc(Cl)c1 | -19%
Cc1ccc(/C=N/NC(=O)c2ccco2)s1 | -5%
COc1ccc(CN2CCCCC2C(=O)Nc2ccc(OC)c(OCC(C)C)c2)cc1OC (stereo not given) | -13%
Cc1onc(C(=O)Nc2sc3c(c2C#N)CCCC3)c1[N+](=O)[O-] | -10%
CC1Cc2ccccc2N1C(=O)CSc1ncc(-c2ccc(F)cc2)n1C (stereo not given) | -26%
N/C(=N\OC(=O)c1ccoc1)c1ccc(Br)cc1 | -5%
O=c1sc(N2CCN(c3ccccc3F)CC2)nc2ccsc12 | -17%
c1csc(-c2cnc3ccccc3n2)c1 | -6%
COc1ccc2nc(SCC(=O)C(C)(C)C)[nH]c2c1 | -4%
O=C(CN1CCOCC1)Nc1ccc(C2CCCCC2)cc1 | 3%
c1ccc(-c2cc3ccccc3cn2)cc1 | -9%
CCOC(=O)CN(C(=O)CSc1nnc(-c2ccncc2)n1CCCN(C)C)c1ccccc1 | 3%
CC(=O)Oc1ccc(-c2csc(Nc3ccccn3)n2)cc1 | -5%
CSCc1ccc(C(=O)Nc2cccc(C)c2C)cc1 | -3%
Cc1ccc(CN(C)C(=O)c2ccc(S(=O)(=O)N3CCCCCC3)cc2)o1 | 11%
COc1ccc(N2CCN(c3ccc(NC(=O)/C=C\C(=O)O)cc3)CC2)cc1 | -5%
C/C(=N\OC(=O)c1ccc(F)cc1)c1sc(-c2ccc(Cl)cc2)nc1C | -6%
CCOC(=O)c1cnc(SCc2cccc(C)c2)nc1N | -16%
O=C(/C=C/c1cccs1)Nc1ccc([N+](=O)[O-])cc1 | -15%
Cc1ccc(Nc2nc(C(=O)N3CCC(C(=O)NC(C)C)CC3)cs2)cc1 | -22%
Nc1ccc(-c2nc3ccc([N+](=O)[O-])cc3[nH]2)cc1 | 10%
O=C(Nc1nnc(-c2cccs2)s1)c1cccc(F)c1 | -2%
Cc1cc(OC(C)C(N)=O)nc(-c2ccccc2)n1 (stereo not given) | -11%
Cc1ccc(NC(=O)c2ccc(OC(=O)c3cc4ccccc4o3)cc2)cc1 | 4%
CCCn1c(SCC(=O)NC2CCCCC2)nnc1-c1ccncc1 | -2%

# (more compounds)
SMILES | HepG2
COC(=O)c1c(-c2ccc(S(C)(=O)=O)cc2)sc2ccc(OC)cc12 | 13%
Nc1nonc1-c1noc(COc2ccccc2Cl)n1 | -20%
CCN1CCN(c2ccc(NC(=O)c3ccc4c(c3)OCO4)cc2)CC1 | 20%
O=C(COc1ccc([N+](=O)[O-])cc1Cl)N1CCc2ccccc21 | -7%
O=S(=O)(Cc1noc(-c2ccccc2Cl)n1)c1ccccn1 | -4%
O=C(NC(=O)c1ccc(F)cc1F)Nc1ccc(Cl)cc1 | 0%
C=CCn1c(-c2cc(-c3ccccc3)sc2N)n[nH]c1=S | 0%
Cc1ccc2[nH]c(-c3cccc(N)c3)cc2c1 | -13%
Cc1ccc(-c2cc3nc(-c4ccccc4)cc(N)n3n2)cc1 | -14%
COc1cc(C(=O)Nc2ccc(N(C)C)cc2)c([N+](=O)[O-])cc1OC | -11%
COC(=O)c1ccc(NC(=O)c2cccc(OC)c2)cc1 | -5%
Cc1ccc(-n2nc3ccc(NC(=O)/C=C/c4ccco4)cc3n2)cc1 | -4%

# Not all compounds are listed. The share of hits here may be higher or lower than overall.
